# Compound activity (PubChem BioAssay)
# AGP1-GFP MLPCN – modulators of AGP1-GFP expression in yeast TOR pathway, primary screen, cell-based, multiplex flow cytometry, S. cerevisiae, MLPCN library; AID 2066, 2009; 3 h; GFP as percent of DMSO wells; GFP response vs DMSO, % at 10 µM; 0.02% of 320,000 active;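 active means GFP response relative to DMSO above a set limit, near screen average plus 3 SD, cut at about 150% in these data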;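 further: median GFP channel fluorescence of the gated AGP1 strain per well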
# GLD-1 TGE inh – GLD-1/TGE RNA complex disruptors, primary screen, biochemical, fluorescence polarization | Female germline-specific tumor suppressor gld-1 (Caenorhabditis elegans), Q17339 | purified GLD-1 + fluorescein TGE RNA | inhibition, % at 5.96 µM | 0.44% of 320,000 active | AID 2280, 2010;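 active means percent inhibition above a per-plate cutoff, the plate mean of test compounds plus 3 SD, cut at about 30% in these data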;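 further: 0% = DMSO wells with GLD-1 and probe and 100% = wells lacking GLD-1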
# GRK2 inh – compounds blocking aptamer binding on GRK2 – biochemical, human GRK2, bead flow cytometry, HTS, primary screen | Beta-adrenergic receptor kinase 1 (Homo sapiens), P25098 | FAM-aptamer displacement from GRK2 | inhibition of aptamer binding, % at 10 µM | 0.59% of 330,000 active;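 active means inhibition of aptamer binding above 40%, roughly 3 SD of noise, on plates passing a quality check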;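 further: median bead fluorescence of bound FAM aptamer so fluorescent compounds give negative values; no value below 0 was filed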
# Target sequence (P25098 whole entry, looked up): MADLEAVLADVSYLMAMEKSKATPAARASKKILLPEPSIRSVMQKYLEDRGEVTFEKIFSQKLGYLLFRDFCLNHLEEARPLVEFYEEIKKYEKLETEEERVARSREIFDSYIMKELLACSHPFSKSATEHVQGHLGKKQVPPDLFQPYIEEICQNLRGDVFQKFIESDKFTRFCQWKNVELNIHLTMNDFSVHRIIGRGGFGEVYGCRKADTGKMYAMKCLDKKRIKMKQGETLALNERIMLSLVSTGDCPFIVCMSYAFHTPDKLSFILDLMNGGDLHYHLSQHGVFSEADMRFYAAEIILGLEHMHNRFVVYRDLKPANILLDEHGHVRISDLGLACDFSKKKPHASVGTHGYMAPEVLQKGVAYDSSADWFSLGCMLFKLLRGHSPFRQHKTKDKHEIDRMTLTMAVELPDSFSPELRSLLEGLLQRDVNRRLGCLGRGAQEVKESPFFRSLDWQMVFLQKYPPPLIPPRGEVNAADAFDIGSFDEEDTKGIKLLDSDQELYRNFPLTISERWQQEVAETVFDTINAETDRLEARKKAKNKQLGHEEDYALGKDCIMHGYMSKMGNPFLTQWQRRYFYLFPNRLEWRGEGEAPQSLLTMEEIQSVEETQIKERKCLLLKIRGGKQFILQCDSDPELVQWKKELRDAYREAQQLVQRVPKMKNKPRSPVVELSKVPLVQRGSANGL
# MEX-5 binding – MEX-5 zinc finger RNA-binding disruptors – biochemical, C. elegans, fluorescence polarization, MLPCN library, primary screen; Zinc finger protein mex-5 (Caenorhabditis elegans), Q9XUB2; MEX-5/FITC-TCR2 RNA binding; active compounds read low; activity score (negative = inhibition of binding), % at 10 µM; 0.38% of 300,000 active;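 active means inhibition past about -25% in most replicates, and total fluorescence under double the plate's negative control median, limit read from the data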;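 further: 0% = DMSO and -100% = 5 µM competing unlabeled TCR2 RNA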
# VLA-4 inh – inhibition in human VLA-4 binding assay, primary screen, VLA-4 allosteric modulator project, MLPCN library, flow cytometry, VLA-4 expressing cells; 0.2% of 330,000 active; AID 2557, 2010; ligand binding flow cytometry; inhibition, % (about 7 µM as worked out from the volumes in the protocol); Integrin alpha-4 (Homo sapiens), P13612; in the data active means inhibition above about 50%
# Fam108B inh – mouse Fam108B serine hydrolase inhibitors, primary screen, counter-screen for RBBP9 inhibitor project, biochemical, fluorescence polarization; 0.33% of 300,000 active; recombinant Fam108B, FP-Rh probe fluorescence polarization; AID 1947, 2009; inhibition, % at 9.51 µM;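 active means inhibition above the screen mean inhibition plus 3 SD, computed separately per campaign, cut at about 18% in these data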;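 further: inhibitors lower polarization as less probe binds the enzyme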
# CIT2 TOR yeast – modulators of CIT2-GFP expression in yeast, primary screen, S. cerevisiae, GFP fusion, multiplex flow cytometry, MLPCN library; GFP response vs DMSO, % at 10 µM; AID 2029, 2009; 0.065% of 320,000 active; S. cerevisiae CIT2-GFP strain, 3 h; 100 means same as DMSO wells;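 active means GFP response relative to DMSO above a set limit, near the screen mean plus 3 SD, cut at about 150% in these data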;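 further: ratio of well median GFP fluorescence to mean of DMSO wells on the plate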
# Numbers without * were called inactive; . = no result given; & = joins results of further samples; [ ] = another dose, or the depositor's remark. Not all compounds are listed. The share of hits here may be higher or lower than overall.
SMILES,AGP1-GFP MLPCN,GLD-1 TGE inh,GRK2 inh,MEX-5 binding,VLA-4 inh,Fam108B inh,CIT2 TOR yeast
CC(CCc1ccccc1)NCC(O)c1ccc(O)c(C(N)=O)c1 (stereo unspecified),88,1,1,-2.2,34,0,89
O=c1[nH]cnc2[nH]ncc12,90,-1,4,-6.8,5,2,88
Cn1c(N)c(C(=O)NCc2ccccc2Cl)sc1=S,103,-2,0,5.0,13,-1,95
CCCCNC(=S)N/N=C/c1ccc(OCC(=O)Nc2c(C)cc(C)cc2C)c(OC)c1,99,2,1,1.0,-1,-6,104
O=C1CC(N2CCC(c3nc4ccccc4[nH]3)CC2)C(=O)N1Cc1ccccc1 (stereo unspecified),106,6,3,3.0,-9,4,106
COC(=O)c1ccc(NC2c3ncccc3C(=O)N2Cc2cccs2)cc1 (stereo unspecified),100,-3,0,1.3,4,1,106
CCOC(=O)c1ccc(NC(=O)CSc2nc(C)cc(=O)[nH]2)cc1,102,1,9,1.9,1,12,103
Nc1c(-c2ccc(Cl)cc2)cnn1C1CCS(=O)(=O)C1 (stereo unspecified),101,4,0,-1.0,-10,4,97
O=C(COc1cccc(NC(=O)c2ccccc2)c1)c1ccccc1,104,-2,0,-0.7,7,-5,100
COc1ccccc1CN(C)C(=O)C1(c2ccc(Cl)cc2)CC1,102,-2,0,-0.7,5,-3,96
O=C(c1ccco1)N1CCN(c2nc(C3CC3)nc3sc4c(c23)CCCC4)CC1,94,6,2,4.7,-4,0,91
Cc1nc2ccc(NC(=O)NCc3ccco3)cc2s1,91,2,0,1.3,0,-7,88
COc1ccc(C(=O)N2CCC(n3c(C)nc4cc(F)ccc43)CC2)cc1,91,0,1,0.2,10,-1,76
Cc1sc(NC(=O)c2ccccc2)c(C(c2ccccn2)N2CCN(CCO)CC2)c1C (stereo unspecified),93,10,1,-1.6,-8,-1,93
Cc1ccc(Nc2nc(N)nc(CSc3nc4ccccc4s3)n2)cc1,96,6,1,0.1,-6,-11,95
CC1CN=C(N(Cc2ccccc2)C(=O)Nc2ccccc2)S1 (stereo unspecified),101,-2,0,1.1,15,-2,96
O=C(CN1CCCC1)Nc1c2c(nc3ccccc13)N(Cc1ccccc1)CC2,102,6,0,-2.9,7,4,96
CC(=O)Nc1ccc(Nc2ncnc(N)c2[N+](=O)[O-])cc1,107,4,0,0.0,6,-4,104
C/C(=N\NC(=O)c1ccc(NS(=O)(=O)c2cccs2)cc1)c1ccccn1,100,4,4,1.3,5,-1,99
Cc1cc(C(F)F)n2ncc(C(=O)NCc3ccccc3F)c2n1,101,0,1,0.3,11,-2,107

# Continued; the last 2 above are carried over.
SMILES,AGP1-GFP MLPCN,GLD-1 TGE inh,GRK2 inh,MEX-5 binding,VLA-4 inh,Fam108B inh,CIT2 TOR yeast
C/C(=N\NC(=O)c1ccc(NS(=O)(=O)c2cccs2)cc1)c1ccccn1,100,4,4,1.3,5,-1,99
Cc1cc(C(F)F)n2ncc(C(=O)NCc3ccccc3F)c2n1,101,0,1,0.3,11,-2,107
C[C@]12C=CC(=O)C=C1CC[C@@H]1[C@@H]2[C@@H](O)C[C@@]2(C)[C@H]1CC[C@]2(O)C(=O)CO,100,5,0,-2.7,59*,-1,97
Cc1nc2sc3c(c2c2nnc(SCC(=O)NCc4ccco4)n12)CCCC3,99,-6,3,-1.3,0,9,90
CNc1ccccc1,98,1,1,.,12,.,93
Clc1cccc(Nc2ncnc3c2cnn3-c2ccccc2)c1,104,0,2,-2.5,17,-47,82
O=c1[nH]c(CN2CCCCC2)nc2ccccc12,94,3,0,-1.3,10,-2,102
O=C(COC(=O)c1cc([N+](=O)[O-])ccc1NCCO)Nc1ccc2c(c1)OCO2,103,3,2,1.8,0,-1,104
CCOC(=O)c1cnc(SCC)[nH]c1=O,112,4,1,-0.9,10,2,104
CC(C)(C)NC(=O)COC(=O)c1cc(F)c(F)cc1Cl,102,-6,4,0.8,-9,7,92
CCN(CC)S(=O)(=O)c1cc(C(=O)n2cccn2)c(Cl)cc1Cl,85,-8,1,-0.7,-14,-3,85
COC(=O)COc1cccc(NC(=O)c2cccc(C)c2)c1,105,1,0,0.1,5,1,101
Cc1ccc(S(=O)(=O)N(C)C)cc1N,98,-1,0,0.1,6,3,100
COc1ccc(CNC(=O)c2cnn3c(C(F)F)cc(C)nc23)cc1OC,106,4,3,0.8,44,-1,103
COc1cc(/C=N/NC(N)=O)ccc1OCC(=O)Nc1ccc(C)c(C)c1,107,7,1,0.5,7,-6,103
Cc1ccc(C)c(NC(=O)CCc2ccc(S(=O)(=O)NC3CCCCC3)cc2)c1,100,3,1,-1.1,1,6,94
CCN1CCN(CC(O)COC(C)C)CC1 (stereo unspecified),98,2,1,-2.2,2,0,105
c1ccc(OCCOCCN2CCc3ccccc3C2)cc1,101,6,0,1.0,-5,-5,94
O=C(NCC1CCCCC1)c1ccco1,102,-7,3,-0.3,31,-2,98
Cc1ccc(Nc2nc(N)nc(CSc3nnc(-c4ccncc4)o3)n2)cc1,102,-1,22,-3.2,14,1,97
Nc1[nH]c(=O)ncc1F,66[may fluoresce red],2,0,0.0,32,3,63[may fluoresce red]
NC(=O)c1cnccn1,89,8,0,5.4,-13,4,112

# A second format for 4 compounds above:
smiles: COc1ccc(CNC(=O)c2cnn3c(C(F)F)cc(C)nc23)cc1OC
  AGP1-GFP MLPCN: 106; GLD-1 TGE inh: 4; GRK2 inh: 3; MEX-5 binding: 0.8; VLA-4 inh: 44; Fam108B inh: -1; CIT2 TOR yeast: 103
smiles: COc1cc(/C=N/NC(N)=O)ccc1OCC(=O)Nc1ccc(C)c(C)c1
  AGP1-GFP MLPCN: 107; GLD-1 TGE inh: 7; GRK2 inh: 1; MEX-5 binding: 0.5; VLA-4 inh: 7; Fam108B inh: -6; CIT2 TOR yeast: 103
smiles: Cc1ccc(C)c(NC(=O)CCc2ccc(S(=O)(=O)NC3CCCCC3)cc2)c1
  AGP1-GFP MLPCN: 100; GLD-1 TGE inh: 3; GRK2 inh: 1; MEX-5 binding: -1.1; VLA-4 inh: 1; Fam108B inh: 6; CIT2 TOR yeast: 94
smiles: CCN1CCN(CC(O)COC(C)C)CC1 (stereo unspecified)
  AGP1-GFP MLPCN: 98; GLD-1 TGE inh: 2; GRK2 inh: 1; MEX-5 binding: -2.2; VLA-4 inh: 2; Fam108B inh: 0; CIT2 TOR yeast: 105

# Other entries:
SMILES,AGP1-GFP MLPCN,GLD-1 TGE inh,GRK2 inh,MEX-5 binding,VLA-4 inh,Fam108B inh,CIT2 TOR yeast
CCn1c(COc2cccc(C)c2)nnc1SCC(=O)Nc1cccc(C(=O)O)c1,108,-2,0,-0.9,21,-1,97
COc1cccc(C(=O)Nc2cccc(OC(C)=O)c2)c1,94,-2,0,2.8,5,-3,91
CN(C(=O)CN(CCO)CC(=O)N(C)C(C)(C)Cc1ccccc1)C(C)(C)Cc1ccccc1,85,-1,0,.,-7,-2,78
O=c1oc2ccccc2cc1-c1csc(Cc2nc(-c3ccc(Cl)cc3)cs2)n1,.,-8,0,2.4,-10,-11,.
COC(=O)CCc1sc(Nc2ccccc2)nc1-c1ccc(OC)cc1,97,0,0,1.8,-15,7,99
CCc1nc(SCC(=O)Nc2nccs2)c2oc3ccccc3c2n1,102,-2,1,1.3,7,-4,97
CC(=O)NS(=O)(=O)c1cccnc1Nc1cccc(Cl)c1,98,2,0,1.8,3,8,102
CC(C)NC(=O)NC(=O)CSc1nnc(C(F)(F)F)n1C,101,4,2,-2.0,9,3,90
CC1(OC(=O)CCc2ccccc2)C(=O)C=C2C=C(c3ccc(C#N)cc3)N(CC3CC3)C=C2C1=O (stereo unspecified),77,12,0,-4.4,-2,5,68
COc1ccc(-c2cc(C(F)(F)F)nc(NCc3ccco3)n2)cc1OC,101,9,21,-0.4,11,-3,76
COc1ccc(OC)c(NC(=O)COC(=O)c2cc3c(s2)CCC3)c1,91,8,42*,1.4,6,6,101
NC(=O)c1sc2nc(-c3ccco3)ccc2c1N,99,-8,7,-2.7,7,1,99
COC(=O)CSc1ncc(C#N)c(N)n1,98,-4,2,-0.6,-10,-2,92
COc1ccc(NC(=O)c2c3c(nc4ccccc24)CCC3)cc1S(=O)(=O)N1CCOCC1,98,4,13,-6.5,11,-1,98
CN1CCC[C@H]1c1cccnc1,90&84,7&5,0&1,0.1,2&-9,3&7,89&82
CCCCc1ccc(NC(=O)CC(C)(C)C)cc1,93,1,0,0.4,18,1,97
Nc1c(-c2ccc(F)cc2)cnn1C1CCS(=O)(=O)C1 (stereo unspecified),94,4,4,0.6,-4,6,96
Cc1cc(=O)oc(C)c1C(=O)NCC1CCCO1 (stereo unspecified),104,5,1,1.3,8,-2,116
Cc1cc(C)nc(Nc2ncc(O)n2-c2ccc(C)c(C)c2)n1,95,3,3,0.4,-45,-1,87
CC(=O)c1ccc(NC(=O)c2cnsn2)cc1,96,4,0,1.3,0,-1,92

# Reprinted from the part before: 3 compounds; new compounds follow.
SMILES,AGP1-GFP MLPCN,GLD-1 TGE inh,GRK2 inh,MEX-5 binding,VLA-4 inh,Fam108B inh,CIT2 TOR yeast
Cc1cc(=O)oc(C)c1C(=O)NCC1CCCO1 (stereo unspecified),104,5,1,1.3,8,-2,116
Cc1cc(C)nc(Nc2ncc(O)n2-c2ccc(C)c(C)c2)n1,95,3,3,0.4,-45,-1,87
CC(=O)c1ccc(NC(=O)c2cnsn2)cc1,96,4,0,1.3,0,-1,92
Cc1nn(Cc2ccccc2)c(C)c1CNC(=O)c1ccc(F)c(S(=O)(=O)N2CCOCC2)c1,105,103*,4,.,3,.,99
COC(=O)C1=NN(c2cccc3ccccc23)C2C(=O)N(c3ccccc3OC)C(=O)C12 (stereo unspecified),106,-1,3,2.0,14,0,109
Cc1ccc(-c2nc(CN(C)C3CCOC3)c(C)o2)s1 (stereo unspecified),96,-8,1,-0.8,27,-2,94
O=C(O)CCC(=O)Nc1ccc(S(=O)(=O)Nc2nccs2)cc1,92,0,0,1.3,56*,-1,99
CC(C)Sc1nc2sc3c(c2c2nnc(SCC(=O)NCc4ccco4)n12)CCCC3,90,6,3,-0.7,8,-3,84
CCCc1nc(NCc2ccccn2)c2nnn(Cc3ccccc3F)c2n1,96,8,0,-1.0,-2,7,100
Cc1cc(-c2csc(NC(=O)c3ccc(C#N)cc3)n2)c(C)n1Cc1ccco1,105,2,2,0.1,8,2,104
Cc1oc(-c2ccc(-c3ccccc3)cc2)nc1CN(C)C1CCOC1 (stereo unspecified),101,4,0,2.0,14,1,67
Cc1ccc(OCc2nnc(SCC(=O)Nc3ccc4c(c3)OCCO4)n2Cc2ccco2)cc1,106,1,0,3.3,7,-2,91
Cn1c(COc2ccc(Cl)cc2)nc2ccccc2c1=O,102,0,5,-5.5,4,0,95
C=CCOc1ccccc1OCC(O)CNC(C)C (stereo unspecified),83,1,0,.,-2,-2,80
COc1cc(NC(=O)COc2ccc(-n3cnnn3)cc2)c(OC)cc1Cl,117,8,0,1.6,0,3,111
NS(=O)(=O)c1cc2c(cc1Cl)NC(C1CC3C=CC1C3)NS2(=O)=O (stereo unspecified),87,2,2,.,5,4,85
Cc1ccc(NC2c3ncccc3C(=O)N2Cc2cccs2)cc1C (stereo unspecified),94,2,6,-0.2,-15,5,102
Cc1cc(C)cc(Nc2nc3c(S(=O)(=O)c4ccccc4)nnn3c3ccccc23)c1,93,3,0,.,-4,1,93
O=C(O)c1ccccc1O,85,1,2,1.8,-4,-4,81
Cc1ccc(/C=N/Nc2nc(N3CCOCC3)nc(N3CCOCC3)n2)o1,91,8,0,-0.8,2,9,75
CCCc1ncc(C[n+]2ccccc2C)c(N)n1,94,2,0,.,17,-4,90
CC(C)NC(=O)CC(=O)NN=C1CCCCC1,100,9,0,1.4,15,2,107
CCc1cc(C(c2ccccn2)N2CCN(C)CC2)c(NC(=O)c2ccccc2)s1 (stereo unspecified),92,-4,0,3.9,-6,5,89
